# Ab BasE inh: blocks the Acinetobacter baumannii siderophore enzyme BasE; purified BasE, fluorescence polarization binding displacement; actives 0.1% (n = 84,000); inhibition, % (test concentration not listed);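 active = both replicates above 25% with normal brightness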;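 note: 0% = negative plate control signal and 100% = positive plate control signal; stock transfer was 100 nL into about 30 µL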
# LANA-nucl inh: inhibitors of KSHV LANA binding to nucleosomes. FITC-LANA1-23 / chicken nucleosome fluorescence polarization; active compounds read low. z-score (no concentration beside the values). actives 0.3% (n = 51,000);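 active = both repeat wells score below -2 in polarization z-score versus plate sample wells, excluding overly bright wells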;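 note: 100 nL library stock added to about 30 µL; numbers are from one replicate; some results filed as inactive read as strong as hits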
#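 Assay system: purified chicken nucleosomes with FITC-labelled LANA N-terminal peptide (1-23) / Probe or stimulus: 50 nM FITC-LANA1-23 probe / Compound dosing: pin-transferred compound, 100 nL / Times: compound with peptide–nucleosome mix 10–45 min at room temperature / Technique: fluorescence polarization, 480 nm excitation, 535 nm parallel and perpendicular emission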
# Starred values were filed as active, the others as inactive; x = no result given; & = joins results of further samples. An excerpt; the hit share may differ from the screen's.
# Every second line gives: LANA-nucl inh | Ab BasE inh
C=CCNS(=O)(=O)c1cccc2nonc12
  x | -0.4
S=c1cc(Nc2ccc(Br)cc2)[nH]cn1
  0.578 | -5.3
CC(=O)Nc1nonc1-c1nc2ccccc2n1Cc1ccc(Cl)cc1Cl
  -0.521 | 0.0
c1ccc(-c2nnc(CN3CCc4sccc4C3c3cccs3)o2)cc1 (configuration not stated)
  x | -0.3
Cc1ccc2c(c1)c(C)cc(=O)n2CCC(=O)O
  -0.611 | 0.6
Cc1nc(-n2cccc2)sc1C(=O)NCCCc1ccccc1
  -0.184 | 3.3
CCn1nc(C)c(CNC(=O)NCc2ccccc2)c1C
  0.339 | -0.9
COc1cc(/C=N\n2cn[nH]c2=S)cc(OC)c1OC
  x | 0.6
CCCN(CCC)C(=O)Cn1ccc(=N)c2ccccc21
  x | 1.8
O=C(Nc1nc2cc3c(cc2s1)OCO3)c1ccc2ncsc2c1
  -1.27 | -1.0
N#CCC1=NC(=O)/C(=C/c2ccc(F)cc2)S1
  x | -2.9
O=C(NCCc1ccccc1)c1ccc2c(c1)OCCCO2
  x | 1.2
C=C(C)CSc1nnc(-c2cccc(S(=O)(=O)N3CCOCC3)c2)n1-c1cccc(Cl)c1
  x | 0.5
O=C(O)c1cccc(NC(=S)NC(=O)c2cccnc2)c1
  0.948 | -1.4
O=c1[nH]c(=O)n(CCC2=CCCCC2)c(O)c1/C=C1/C=CC=N1
  0.536 | 0.6
N#Cc1ccccc1OCC(=O)C12CC3CC(CC(C3)C1)C2
  x | 0.5
Cc1ccc(C(=O)NC(=S)NCc2ccco2)cc1
  -0.592 | 0.5
COCCNCc1c(C(=O)O)c(C)n(Cc2ccccc2C)c1C
  -0.492 | -3.1
CC(=O)NS(=O)(=O)c1ccc(NC(=O)C2CCCN2C(=O)OC(C)(C)C)cc1 (configuration not stated)
  x | 2.7
O=C(Sc1ccc(C(F)(F)F)cn1)c1csc(C2COc3ccccc3O2)n1 (configuration not stated)
  x | 0.2
Cc1cccc(NC(=O)NCC(=O)NC2CC2)c1
  x | -0.7
Cc1ccccc1OCCN1C(=O)NC2(CCC(C)CC2)C1=O (configuration not stated)
  x | 1.9
O=C(Nc1nccs1)c1cc2c(cc1Cl)N1CCCCCC1=NS2(=O)=O
  x | 1.0
CCc1cc2c(=O)c(-c3ccc4c(c3)OCCO4)c(C)oc2cc1O
  -0.457 | -2.1
O=C(NCCc1ccccc1)c1nn2cccnc2c1Cl
  -1.68 | 1.6
Cc1c(Cl)cccc1NC(=O)CSc1nc(=O)n(CCN2CCOCC2)c2c1CCCC2
  -1.35 | 2.2
CCc1ccc(NC(=O)CCCn2c(=O)c3cccn3c3cccnc32)cc1
  -0.419 | -1.7
Cc1nc2sc(C(=O)N(Cc3ccco3)Cc3cccs3)c(C)c2c(=O)[nH]1
  x | -0.2
N#Cc1ccccc1S(=O)(=O)N1CCN(Cc2c(O)ccc3ccccc23)CC1
  x | -1.2
FC(F)(F)c1cccc(NC(=S)Nc2cc(-c3cccs3)[nH]n2)c1
  x | 4.2
CC1CCN(Cn2cnc3ccccc3c2=O)CC1
  x | 1.3
N[C@@H](C(=O)N[C@@H]1C(=O)N2C(C(=O)O)=C(CSc3cn[nH]n3)CS[C@H]12)c1ccc(O)cc1 (tested in a mixture with another compound)
  -0.091 | x
Cc1cccc(C)c1NC(=O)Cn1c(=O)n(CCCC(=O)NCc2ccco2)c(=O)c2sccc21
  -1.52 | 0.0
CCOc1ncccc1C(=O)NCc1ccc(F)cc1
  x | 2.6
CC(Oc1ccc(Br)cc1)C(N)=O (configuration not stated)
  -1.66 | -0.4
c1cnc(Sc2ccc3ccccc3c2)nc1
  x | -0.4
COc1ccc2oc(C(=O)OC(C)C(=O)N3C(C)CCCC3C)c(C)c2c1 (configuration not stated)
  x | 1.2
Cc1ccc(CNC(=O)C2CC3CCCN3C23C(=O)N(C)c2ccccc23)cc1 (configuration not stated)
  0.64 | -0.7
CCCOC(=O)c1ccc(NC=O)cc1
  2.17 | -1.0
COc1ccc2[nH]cc(CCNC(=O)Cn3cnc4ccccc4c3=O)c2c1
  -1.66 | -2.9
COc1ccc(-c2nc(SCC(=O)N3CCCc4ccccc43)[nH]c(=O)c2C#N)cc1
  x | -0.6
O=C1NC(c2ccc(Br)cc2)Oc2ccccc21 (configuration not stated)
  x | -1.1
Cc1nc2ccc(NC(=O)NCCCO)cc2s1
  -0.451 | -1.8
O=C(CCCc1nnc2n3nc(-c4ccccc4)nc3c3ccccc3n12)NCc1ccco1
  0.151 | -1.2
CCCN(CCC)S(=O)(=O)c1ccc(C)cc1
  0.439 | 4.3
CCc1nnc2c(N(C)c3cccc(C)c3)nc3ccccc3n12
  x | 0.0
COc1ccccc1NC(=O)C1C2C=CC3(CN(Cc4cccnc4)C(=O)C13)O2 (configuration not stated)
  0.51 | 2.4
O=c1cnc(Nc2ccccc2Cl)c2ccccc2n1
  x | -1.1
COc1ccc(I)c(OC)c1
  -0.547 | 5.9
CC1=C/C(=N\NS(=O)(=O)c2ccc(C)cc2)CC1
  x | 2.8

# More compounds
# Every second line gives: LANA-nucl inh | Ab BasE inh
CC1=NN(C(=O)c2cccs2)C(O)(C(F)(F)F)C1 (configuration not stated)
  0.293 | 0.2
COc1ccc2c(c1OC)C(=O)NC(C)=C(C(=O)OC(C)(C)C)C2O (configuration not stated)
  -0.273 | 3.7
CC(C)N(C(=O)CSc1nc2ccc(Cl)cc2[nH]1)C(C)C
  x | -3.2
O=C1Nc2ccc(Cl)cc2S/C1=C/Nc1ccccc1
  -0.535 | x
Cc1nc2ccn(Cc3cccnc3)c(=O)c2cc1C(=O)NCCC(C)C
  -0.907 | 0.3
CCCOc1ccc(C2c3c(oc4ccc(Cl)cc4c3=O)C(=O)N2CCN(CC)CC)cc1OC (configuration not stated)
  0.133 | 1.1
O=C1C2C3C=CC(C3)C2C(=O)N1c1nc2ccccc2s1 (configuration not stated)
  -0.015 | 1.6
CCN1C(=O)c2c(C)nc3ccccc3c2C1=O
  0.338 | 2.3
O=C(Nc1nc(-c2cccnc2)cs1)C1CCCC1
  x | -4.6
CC1CCc2sc(C(=O)NCCCn3ccnc3)cc2C1 (configuration not stated)
  x | 0.6
CC(C)=NNc1c(Cl)cc(Cl)cc1Cl
  1.3 | -1.0
Cc1cc(C)c(C#N)c(N2CCN(c3ccccc3)CC2)n1
  2.4 | x
O=C1c2ccccc2S(=O)(=O)N1CC(O)Cn1ccc2ccccc21 (configuration not stated)
  -1.11 | 2.6
O=C(CSC1=NS(=O)(=O)c2ccccc2N1)c1ccccc1
  2.69 | -3.9
COC(=O)C(C)n1cnc2sc3c(c2c1=O)CCCC3 (configuration not stated)
  0.276 | 3.0
Cc1ccc(S(=O)(=O)NC(=O)Nc2scc(C)c2C(=O)c2ccccc2)cc1
  x | 1.7
CO[C@@]1(NC(=O)CSCC#N)C(=O)N2C(C(=O)O)=C(CSc3nnnn3C)CSC21 (some centres not stated)
  0.0915&0.11 | -0.6
CCc1nc2oc(C(=O)c3ccccc3)c(N)c2c2c1COC(C)(C)C2
  x | 2.2
Cc1ccc(C(C)(C)C)c(OCCN2CCCC2)c1
  -1.39 | -0.7
CC1=C(C(=O)Nc2ccc(C)cc2)C(c2ccco2)n2c(nc3ccccc32)N1 (configuration not stated)
  0.925 | -0.3
Cc1nc2ccccc2c(=O)n1NCc1cccs1
  x | 1.5
CCCN(CC(=O)Nc1ccc(F)c(F)c1F)C(=O)c1cc2ccccc2o1
  x | 1.8
CC1Cc2ccccc2N1C(=O)CSc1nc2cc(Cl)ccc2o1 (configuration not stated)
  x | 3.0
CC1CN(S(=O)(=O)c2ccc(NC(=O)Cc3ccccc3F)cc2)CC(C)O1 (configuration not stated)
  x | -2.3
Cc1ccc(-c2ccc(CCC(=O)O)n2-c2cc(C)cc(C)c2)cc1
  x | 2.7
CNC(=O)NC(=O)Cn1nc2n(c1=O)-c1ccccc1SC2
  -0.166 | 1.9
O=CN1CCN(CC(O)Cn2c3ccccc3c3ccccc32)CC1 (configuration not stated)
  x | 0.7
O=C(O)CCCC[C@@H]1SC[C@@H]2NC(=O)N[C@@H]21
  0.237 | 0.4
CCC(/C=N/Nc1nc(C)cc(C)n1)CC
  x | 1.0
Cc1cc(/C=C(\C#N)C(=O)C(C)(C)C)c(C)n1C1CCCC1
  x | -0.5
Cc1cc(C(F)(F)F)n2nc(C)cc2n1
  -0.116 | 0.0
O=S(=O)(c1ccccc1)N(CCOc1ccc(F)cc1)c1nccs1
  x | 1.0
CC(=O)N1CCc2cc(C(=O)C[n+]3ccccc3)ccc21
  -1.2 | 1.4
O=C(CCCn1c(=O)oc2ccccc21)NC1CCCc2ccccc21 (configuration not stated)
  x | -2.1
CN(CC(=O)NCc1ccccn1)S(=O)(=O)c1ccccc1
  -0.311 | 4.7
Cn1c(CNc2ccc(Cl)cc2)nnc1SCc1ccc(Cl)cc1
  0.995 | 0.1
S=c1[nH]c2ccccc2nc1N1CCOCC1
  -0.387 | 1.9
CCOC(=O)c1[nH]c(COC(=O)[C@H](C)NS(=O)(=O)c2ccc(OC)cc2)c(C(=O)OCC)c1C
  x | -2.8
CC(=O)NCc1ccc(C(=O)COC(=O)c2cc(C)nc3ccccc23)o1
  x | 1.8
O=C1N(c2ccc(Cl)cc2)C(c2ccc(Cl)cc2)N2CCCN12 (configuration not stated)
  -1.5 | -2.0

# Reprinted at random: 5 entries already listed, in no set order.
# Every second line gives: LANA-nucl inh | Ab BasE inh
Cc1cc(C(F)(F)F)n2nc(C)cc2n1
  -0.116 | 0.0
O=S(=O)(c1ccccc1)N(CCOc1ccc(F)cc1)c1nccs1
  x | 1.0
CC(=O)N1CCc2cc(C(=O)C[n+]3ccccc3)ccc21
  -1.2 | 1.4
Cn1c(CNc2ccc(Cl)cc2)nnc1SCc1ccc(Cl)cc1
  0.995 | 0.1
CN(CC(=O)NCc1ccccn1)S(=O)(=O)c1ccccc1
  -0.311 | 4.7

# Further structures.
# Every second line gives: LANA-nucl inh | Ab BasE inh
O=C(O)C1Sc2[nH]c(=O)sc2C2c3cc(Br)cc(Br)c3OC(=O)C12 (configuration not stated)
  0.699 | 14.0
Cn1nnnc1SCCCC(=O)c1ccc(F)cc1
  x | -2.5
Cc1ccc(-c2nc3n(n2)C(=O)CC(c2ccc4c(c2)OCO4)S3)cc1 (configuration not stated)
  -0.762 | 6.4
O=c1nccc(C(F)(F)F)[nH]1
  x | 1.6
Cc1[nH]c2ccc(C(=O)OC3CCOC3=O)cc2c1C (configuration not stated)
  x | -6.7
COc1ccccc1N1C(=O)CCC1(C#N)c1ccc(OCc2ccccc2)cc1 (configuration not stated)
  x | 1.0
COC(=O)c1ccc(NC(=O)COC(=O)C2=NN(c3ccccc3)C(=O)CC2)cc1
  x | 1.3
CC1CCN(C(=O)CN(C)S(=O)(=O)c2ccc3ccccc3c2)CC1
  -0.405 | 0.1
S=c1n(CN2CCCCC2)nc2n1CCCCC2
  x | 2.6
COc1ccc(S(=O)(=O)n2ccc(C3CC3)n2)cc1
  -0.292 | x
O=C(CNS(=O)(=O)Cc1ccccc1)NCc1ccccc1
  x | 1.0
CC1CCCCN1S(=O)(=O)c1ccc(NC(=O)/C=C/c2ccco2)cc1 (configuration not stated)
  -0.018 | -1.7
C#CCOC1(C)COC(C)(OCC#C)CO1 (configuration not stated)
  -0.136 | 0.2
CCOC(=O)/C(C#N)=C\Nc1ccc(-c2nnc(C(F)(F)F)o2)cc1C
  0.281 | 1.6
O=c1[nH]cc(NCc2ccco2)c(=O)[nH]1
  0.0505 | 4.3
Cc1ccc(C)c(NC(=O)c2ccc(-n3cnnc3)cc2)c1
  1.26 | -1.4
CCOC(=O)c1c(N)n(CCc2ccccc2)c2nc3ccccc3nc12
  0.227 | 1.1
O=P(c1ccccc1)(c1nc2ccccc2s1)N1CCCCC1 (configuration not stated)
  x | 0.1
CCOC(=O)c1cnc2ccc(C(=O)OC)cc2c1NCc1cccnc1
  -0.0625 | 0.1
Cc1c(C(=O)N(CC(F)(F)F)C(C)C2CC2)oc2c(F)cccc12 (configuration not stated)
  x | 0.1
CC(=O)Nc1nc(CSc2nnnn2-c2ccc(Cl)cc2)cs1
  x | 2.2
O=C(O)C1Cc2ccccc2CN1C(=O)CSc1nnc2ccccn12 (configuration not stated)
  x | 4.3
CCCCCC1C(O)CCC1CC(=O)NN (configuration not stated)
  0.304 | 0.8
CCc1nnc(NC(=O)CC2CC3CCC2C3)s1 (configuration not stated)
  1.46 | -2.5
ClCc1cc(-c2ccccc2)on1
  0.192 | x
CCn1nc(C(=O)N2CCCSC2=Nc2ccccc2)c2ccccc2c1=O
  x | -2.3
N=c1n(CCO)c2ccccc2n1Cc1ccccc1Cl
  -0.542 | -2.1
COc1cccc(OC)c1CO
  0.435 | 3.0
OCc1nnc2n1N=C(c1ccc(Cl)cc1)CS2
  -0.647 | -3.0
CCc1ccc(N(CC(=O)N2CCCCC2)S(C)(=O)=O)cc1
  -1.22 | -4.1
O=C(c1ccc(Cn2c(=O)c3cccn3c3cccnc32)cc1)N1CCCC1
  -0.34 | -2.8
CC(On1nnc2ccccc21)C(=O)Nc1ccc(Cl)cc1Cl (configuration not stated)
  x | 2.0
N#CCOC(=O)c1ccccc1S(=O)(=O)N1CCCCC1
  x | 3.8
CCC(C)Nc1cc(C(C)C)c(C#N)c2nc3ccccc3n12 (configuration not stated)
  -1.38 | 2.6
CC(C)(C)n1ncc2c(=O)n(CC(=O)N3CCCc4ccccc43)cnc21
  0.79 | -1.9
Cc1cc(C)nc(SCc2cc(-c3nn(C)c(=O)c4ccccc34)ccc2C)n1
  x | 2.3
Cc1nn(-c2ccccc2)c(N2CCCC2)c1/C=N/O
  x | -0.6
